Bioassay records: PubChem, several laboratories
PABP FP inh: PABP poly(A) RNA binding inhibitors, primary screen, biochemical, fluorescence polarization, uHTS. Polyadenylate-binding protein 1 (Homo sapiens), P11940. inhibition, % at 35 µM. actives 1% (n = 290,000);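 active = 50% or more with normal probe brightness, or confirmed in later tests; inconclusive = above 50% with abnormal brightness, or retests that disagree; inactive = below 50% or failed in later tests; about a fifth of its hits are not listed in these tables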;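 also: calls also rest on retests at 20 µM and on dose response follow-up; controls were probe without protein and protein plus probe with vehicle; some compounds called inactive have numbers as strong as hits; many hits fall short of the cut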
MT1-MMP act inh: blockers of MT1-MMP proenzyme processing, primary screen, HT1080 RFP-PRO-GFP cells, GFP/RFP fluorescence. GFP/RFP ratio change, % at 20 µM. Matrix metalloproteinase-14 (Homo sapiens), P50281. GFP/RFP ratio fluorescence, overnight; percent of plate control window, DMSO zero. actives 0.061% (n = 360,000);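 active = GFP/RFP ratio change of at least 30% with cell ATP level not reduced by more than half and red fluorescence within 50% of control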; also: strong numbers were not always called active
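Test system: HT1080 cells expressing an RFP-PRO-GFP fluorescent reporter construct / Compound dosing: single-point 20 µM compound, 1% DMSO / Schedule: cells overnight before dosing, compound overnight, 37 °C, 5% CO2 / Evaluation: GFP/RFP fluorescence ratio / Control set: DMSO and RFP-L50D-GFP cell wells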
CSC inhib: cancer stem cell viability inhibitors, primary screen, luminescence | cancer stem cell-like cells viability | inhibition, % at 7.5 µM | actives 1.1% (n = 300,000);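 active = mean at 75% or more and at least half the replicates too; inconclusive = mean and replicates disagree; tested in HMLE shEcad cells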;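 also: 0% = median of negative and 100% = median of positive control wells; the first replicate is given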
UUG fidelity: modulators of yeast start codon fidelity, primary screen, whole organism, S. cerevisiae, single point, plate reader. S. cerevisiae UUG-firefly luciferase reporter, luminescence/redox ratio. activity score, % at 18.7 µM. actives 0.13% (n = 350,000);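 active = replicate mean at a twofold rise or more, about +100% in these data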;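 also: firefly luciferase made from a UUG start codon reports start codon fidelity; reporter light over untreated wells divided by growth signal over untreated wells; some hits fall short of that in this replicate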
Rce1 inh: yeast Rce1p protease inhibitors, primary screen, biochemical, fluorescence, cell-free homogeneous; CAAX prenyl protease 2 (Saccharomyces cerevisiae (strain ATCC 204508 / S288c)), Q03530; yeast membranes, quenched prenylated peptide cleavage fluorescence; calls only; actives 0.27% (n = 290,000); AID 2563, 2010;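 active = fall in fluorescence gain of 50% or more versus controls, with final raw signal at or below 3038400; inconclusive = same 50% fall but final raw signal above 3038400; inactive = fall in fluorescence gain under 50%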;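 also: plate controls were neutral control wells for no effect and wells lacking membranes for full effect; tested at 10 µM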
Target sequence (Q03530 whole entry, looked up): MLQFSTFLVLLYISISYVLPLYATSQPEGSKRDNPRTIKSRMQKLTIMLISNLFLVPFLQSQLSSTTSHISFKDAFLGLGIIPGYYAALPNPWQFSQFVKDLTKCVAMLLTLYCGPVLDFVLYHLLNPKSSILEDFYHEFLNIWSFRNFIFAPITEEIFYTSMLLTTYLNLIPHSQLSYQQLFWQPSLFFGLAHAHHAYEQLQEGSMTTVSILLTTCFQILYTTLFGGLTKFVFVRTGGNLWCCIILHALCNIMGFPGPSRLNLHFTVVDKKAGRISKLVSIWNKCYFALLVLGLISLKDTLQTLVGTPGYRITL
HIV Env fusion: inhibitors of HIV-1 Env-driven cell-cell fusion, primary screen, HeLa-JRFL effector, CEM21 target cells, luciferase; AID 651610, 2012; inhibition, % at 12.3 µM; actives 1.1% (n = 360,000);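 active = mean replicate inhibition score of at least 50 and every replicate individually at or above 50; inconclusive = only one of the two criteria met; inactive = mean below 50 and not all replicates reaching 50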;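 also: 0% = plate neutral controls and 100% = maraviroc near 300 nM; one replicate is shown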
eIF4H inh: human eIF4H binding inhibitors, primary screen, translation initiation inhibitor project, biochemical, uHTS, fluorescence polarization | Eukaryotic translation initiation factor 4H (Homo sapiens), Q15056 | eIF4H fluorescence polarization binding assay | inhibition, % at 35 µM | actives 0.94% (n = 290,000);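 active = 50% or more with normal probe brightness, or confirmed in later tests; inconclusive = above 50% with abnormal brightness, or retests that disagree; inactive = below 50% or failed in later tests; about a fifth of its hits are not listed in these tables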;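 also: calls also rest on retests at 20 µM and on dose response follow-up; 0% = protein and probe with vehicle and 100% = probe without protein; strong numbers were not always called active; many hits fall short of the cut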
eIF4H inh retest: recorded beside eIF4H inh, whose call it bears; inhibition, %; compound at 20 µM; confirmation average;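 mean of two retest wells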
PABP FP inh retest: recorded beside PABP FP inh, whose call it bears; inhibition, %; compound at 20 µM; confirmation repeats;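 mean of two retest wells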
MT1-MMP act inh RFP: further read-out of MT1-MMP act inh, marked with its call; RFP signal change, %; measured here: RFP expression control read;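 0 = vehicle wells; hits needed this value within 50% of zero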
Starred values were filed as active, the others as inactive; i = inactive; ? = inconclusive; . = no result given; & = joins results of further samples.

SMILES	PABP FP inh	MT1-MMP act inh	MT1-MMP act inh RFP	CSC inhib	UUG fidelity	Rce1 inh	HIV Env fusion	eIF4H inh	others
Cc1nn(C)cc1S(=O)(=O)N1CCN(c2ccccc2)CC1	4	3	5	-3	12	i	6	-7
Cc1ccc(NC(=O)CSc2nnc(Cc3ccccc3)o2)cc1	0	2	5	-4	.	i	1	-5
Cc1ccc(Cl)cc1NC(=O)CON=C(N)c1ccccc1	.	12	1	.	-3	.	20	.
CN(C)Cc1ccccc1C(O)(c1ccccc1)c1ccccc1	-1	-1	0	5	-2	i	20	-4
COc1ccc(C(=O)NNC(=O)Cn2nc(C)cc2C)cc1S(=O)(=O)N1CCOCC1	.	1	-7	.	-17	.	12	.
CCN(CC)S(=O)(=O)c1ccc(C)c(NC(=O)CN2CCN(C)CC2)c1	20	9	6	-4	-16	i	-7	6
CN(C=O)c1cc([N+](=O)[O-])ccc1OCc1ccccc1	.	0	0	.	-9	.	-10	.
Cc1ccn(CCC(=O)N2CCCC(CCC(=O)NCc3ccc(F)c(F)c3)C2)n1 (stereo not given)	2	-4	1	-6	.	i	12	-2
NS(=O)(=O)c1ccc(NC(=O)c2ccc(OCC3CCCO3)cc2)cc1 (stereo not given)	.	3	-2	-12	-5	.	-4	.
CC(C)c1ccc2oc(=O)cc(CN3CCN(c4ccc(F)cc4)CC3)c2c1	-5	-1	-9	32	-7	i	.	5
COc1ccc(OCCSc2ncnc3nc[nH]c23)cc1	2	1	-16	10	-23	i	-12	-2
Cc1ccc(C(=O)N/N=C\c2ccc([N+](=O)[O-])s2)cn1	2	-3	-6	17	.	i	2	49
O=C(CCCn1c(SCC(=O)NCC2CCCO2)nc2ccccc2c1=O)NCC1CCCO1 (stereo not given)	1	0	0	.	-3	.	-23	-6
Cc1ccc(/C=C/C(=O)c2ccc(C)cc2)cc1	-2	-1	0	12	-5	i	-25	3
CCCCCCCC(=O)N/N=C/c1ccc(Br)cc1	-2	8	5	6	-1	i	2	-7
CC1CN(C(=S)NC(=O)c2ccc(Cl)cc2)CC(C)O1 (stereo not given)	0	3	4	-3	-20	i	-10	-8
COc1ccc(C(=O)N=C2CCC(C#N)=C3c4cc(OC)c(OC)cc4CCN23)cc1	5	-11	-2	-17	.	i	2	-4
NC(=NCCc1ccc(Cl)cc1)NS(=O)(=O)c1ccc(F)cc1	3	0	0	-7	.	i	3	5
O=C(NCc1cccnc1)C(=O)Nc1ccc2c(c1)OCO2	-10	3	4	-11	.	i	5	-2
COCCn1c(SCC(=O)Nc2ccccc2)nc2c(oc3ccccc32)c1=O	-7	0	5	-10	.	i	-16	1
COc1ccc(N2C[C@H](Cc3ccccc3)[C@@H](CC(=O)Nc3ccccc3)C2=O)cc1	.	-1	-3	.	-12	.	-27	.
CCN(CC(=O)Nc1c(F)cccc1F)C(=O)CNC(=O)c1ccco1	.	-2	0	-6	-9	i	.	.
Cc1ccc(C(=O)NNC(=O)c2ccc(NC(=O)C(C)(C)C)cc2)cc1	-4	4	5	-8	-9	i	-5	-20
CC(=O)c1cccc(NC(=O)CSc2nc(=O)n(CCN3CCOCC3)c3c2CCCC3)c1	.	0	3	-4	-4	i	0	.
NCCSc1c(-c2ccccc2)[nH]c2ccccc12	-9	4	1	-14	-9	i	2	-8
O=C1CS/C(=N\C(=O)N2c3ccccc3Sc3ccccc32)N1	2	-13	-1	25	-14	i	-7	-6
Cc1cc(C)nc(SCCC(=O)Nc2ccccc2)n1	7	-6	-2	-8	-11	i	.	-4
COc1ccc2oc(C(=O)NNC(=O)c3ccc(F)cc3)c(C)c2c1	.	2	2	.	-7	i	.	.
NNC(=O)c1ccccc1OCc1ccccc1	-8	-3	-9	-2	-19	i	12	0
COc1ccc2nc(C)cc(NCc3ccc(F)cc3)c2c1	?	-67	4	-10	-7	i	-40	?
Cc1onc(-c2ccccc2Cl)c1C(=O)Nc1cccc(-c2nc3ncccn3c2C)c1	-6	-3	-6	-8	-2	i	-14	-8
CCc1ccc(N2C(=O)CC(NNc3nc4ccccc4s3)C2=O)cc1 (stereo not given)	4	0	3	-8	-21	i	.	-1
COc1ccc(CNc2nc3ccc(C)cc3s2)c(OC)c1OC	1	-2	-8	-11	-3	i	-9	-2
CCOC(=O)c1c(C)[nH]c(C)c1C(=O)COC(=O)C1CCCN1S(=O)(=O)c1ccccc1F (stereo not given)	-1	0	8	-8	-6	i	.	3
O=C1CCCN1C(=O)CCC(=O)N1CCCC1=O	3	-2	3	0	-12	i	.	5
CCc1c(C)nc2[nH]nc(-c3ccccc3C)n2c1=O	0	3	1	-7	-7	i	.	-6
COc1cc(C(=O)NCC(=O)Nc2c(C)cccc2C)ccc1OCC(=O)N1CCOCC1	.	-4	1	2	-6	.	.	.
CCC12CC3CC(C1)CC(C(=O)O)(C3)C2	-6	0	2	-4	1	i	-43	3
C=CCn1c(SCC(=O)N2c3ccccc3Sc3ccccc32)nnc1-c1ccco1	5	0	-3	48	.	i	4	0
COc1ccc(NC(=O)C2CCCN(S(C)(=O)=O)C2)cc1 (stereo not given)	8	1	4	-17	0	i	-36	3
Cn1cc(S(=O)(=O)N2CCCC2)cc1C(=O)N1CCN(c2ccccc2)CC1	6	-3	8	-12	-13	i	-44	-3
COc1ccc(/C=N/NC(=O)c2cccc(C(F)(F)F)c2)cc1	4	3	5	10	-6	i	-12	-2
N#CCCN(C(=O)Nc1ccc(Cl)c(Cl)c1)C1CCCCC1	.	-2	-19	.	-8	.	18	.
Cc1ccc(OCCC(=O)N(Cc2ccccc2)c2c(N)n(Cc3ccccc3)c(=O)[nH]c2=O)cc1	.	-4	-7	.	-6	i	-2	.
Cc1noc(C)c1CSCC(=O)Nc1ccc(S(C)(=O)=O)cc1	.	3	4	-4	1	.	.	.
COc1ccc(-c2csc(C(O)c3ccc(F)cc3)n2)cc1OC (stereo not given)	.	2	-7	.	-3	.	28	.
N#Cc1cccc(CN2C=NS(=O)(=O)c3ccccc32)c1	14	2	-2	.	-9	i	13	-2
COc1cc(CN2CCCC(CO)(Cc3ccccc3C)C2)cc2c1OCO2 (stereo not given)	-14	0	3	17	.	i	4	-9
c1ccc2c(-c3nc(C4CCCCC4)no3)cc(-c3ccncc3)nc2c1	2	-15	-12	.	-29	i	.	0
CCOC(=O)C1=C(C)NC(=O)NC1C(C)C (stereo not given)	.	-4	0	-13	-12	i	8	.
CCOc1ccc(S(=O)(=O)N2CCOCC2)cc1NC(=O)C1CCC1	-11	4	2	.	-8	i	16	-11
Cc1nc(N(C)C)c2sc(=S)n(C)c2n1	-15	0	1	-1	-22	i	-9	-12
O=C1Nc2ccccc2N(O)N1c1ccc(Cl)cc1	3	2	4	-6	.	.	15	-3
CS(=O)(=O)c1ccc2nc(NC(=O)Oc3ccccc3)sc2c1	-9	1	-3	6	-14	i	-42	-6
COc1ccc2c(c1)CC/C2=N\OC(=O)c1ccccc1C	0	2	3	-1	.	i	-162	9
COc1cccc(NC(=O)Cn2c3ccc(F)cc3c3nc4n(c(=O)c32)CCS4)c1	.	2	0	-5	-8	i	-5	.
COc1ccccc1S(=O)(=O)N(C)C[C@H]1Oc2cc(C#CCC3CCCC3)ccc2S(=O)(=O)N([C@H](C)CO)C[C@H]1C	.	-7	-6	.	59&-9	.	17	.
COc1ccc(-c2nc(CS(=O)(=O)CC(=O)NCCc3cc(OC)ccc3OC)c(C)o2)cc1	0	-1	-3	0	-3	i	-20	-8
O=C(COC(=O)CNC(=O)c1ccc(Cl)cc1Cl)NCc1ccco1	.	-3	1	0	-9	i	-4	.
N#CC(C#N)=C1C=CC=CN1/C(=C\c1ccco1)C(=O)c1ccccc1	2	-31	-3	-41	.	.	-309	56	eIF4H inh retest=15;PABP FP inh retest=18

The list continues:
SMILES	PABP FP inh	MT1-MMP act inh	MT1-MMP act inh RFP	CSC inhib	UUG fidelity	Rce1 inh	HIV Env fusion	eIF4H inh	others
COc1ccc(C(=O)Oc2cc(C)[nH]c(=O)c2[N+](=O)[O-])cc1	-5	0	4	-12	-21	i	27	-5
COC(=O)N=Nc1c(O)[nH]c2ccc(Br)cc12	8	8	5	8	-20	i	-29	6
Cc1cc(C)nc(SCc2ccc(C(=O)NNC(=O)Nc3cccc(Cl)c3)cc2)n1	-9	-12	-9	111*	-16	i	17	-11
O=C(/C=C/c1ccccc1)OCC(=O)c1ccc[nH]1	.	0	4	1	.	i	-20	.
CN(C)S(=O)(=O)c1ccc(C(=O)NCc2nnc(SCC(=O)c3ccccc3)o2)cc1	6	3	1	11	0	i	-7	2
O=C(COC(=O)c1cc[n+]([O-])cc1)NCCc1ccc(Cl)cc1Cl	5	0	7	6	.	i	-9	8
CN(C)S(=O)(=O)c1ccc(C(=O)OCC2COC(C)(C)O2)cc1 (stereo not given)	7	0	5	.	.	i	-8	4
